Compound activity as filed in PubChem.
KCNQ2 inh: KCNQ2 potassium channel inhibitors, primary screen, cell-based, CHO-K1, FluxOR thallium flux, B-score (AID 2156). B-score at 10 µM. 20 min; active compounds read low; only compounds with negative scores are shown here; some inactives read as strong as hits. 310,000 compounds, 1.1% hits;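 active means fluorescence ratio B-score at most minus 3 library SDs, with starting brightness B-score within 2 library SDs, cut at about -5.5 in these data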
Target sequence (O88943 whole entry, looked up): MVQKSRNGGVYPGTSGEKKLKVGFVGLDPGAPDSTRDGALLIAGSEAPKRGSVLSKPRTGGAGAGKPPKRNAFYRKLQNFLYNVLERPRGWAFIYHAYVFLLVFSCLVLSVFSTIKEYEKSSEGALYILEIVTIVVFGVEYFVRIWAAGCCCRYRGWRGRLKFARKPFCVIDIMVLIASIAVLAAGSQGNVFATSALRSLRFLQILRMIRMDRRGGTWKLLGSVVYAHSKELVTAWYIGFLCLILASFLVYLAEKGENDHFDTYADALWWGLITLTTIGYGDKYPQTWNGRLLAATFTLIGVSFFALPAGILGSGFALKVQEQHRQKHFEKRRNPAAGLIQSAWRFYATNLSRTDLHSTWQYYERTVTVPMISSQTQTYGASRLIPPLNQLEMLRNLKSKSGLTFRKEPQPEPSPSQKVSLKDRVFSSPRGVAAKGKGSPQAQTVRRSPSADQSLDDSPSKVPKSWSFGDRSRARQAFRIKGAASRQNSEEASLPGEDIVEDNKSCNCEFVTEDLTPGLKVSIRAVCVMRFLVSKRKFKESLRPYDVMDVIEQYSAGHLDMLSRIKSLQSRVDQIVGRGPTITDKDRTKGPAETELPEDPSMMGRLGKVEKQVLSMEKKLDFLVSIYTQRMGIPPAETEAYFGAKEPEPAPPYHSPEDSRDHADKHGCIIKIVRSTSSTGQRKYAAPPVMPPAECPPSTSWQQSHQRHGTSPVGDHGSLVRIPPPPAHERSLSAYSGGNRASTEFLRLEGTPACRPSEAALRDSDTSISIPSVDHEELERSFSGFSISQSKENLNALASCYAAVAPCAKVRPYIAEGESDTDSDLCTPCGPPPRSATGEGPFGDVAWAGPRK
KCNQ2 inh baseline: also measured in KCNQ2 inh; calls as there; B-score; measured here: initial fluorescence intensity artifact check;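 brightness before thallium and not channel activity; 0 = typical well and far values either way flag optical interference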
An asterisk follows results filed as active; i = inactive.

The opening 5 records, to show the layout:
compound	KCNQ2 inh	KCNQ2 inh baseline
O=C(NS(=O)(=O)c1ccccc1)c1ccccc1F	i	-1.8
Cc1ccc(C(=O)c2ccccc2C(=O)OCC(=O)Nc2ccc(SC(F)F)cc2)cc1	i	0.14
COc1ccc(-n2cc(-c3ccccc3)[nH]c2=S)cc1	i	2.4
CCOC(=O)c1ccccc1NC(=O)C1CSC2(C)CCC(=O)N12 (configuration not stated)	i	-0.7
COc1ccc(Cn2c(-c3ccco3)nc3oc4ccccc4c(=O)c3c2=O)cc1	i	1.7

This part in full, from the first entry:
compound	KCNQ2 inh	KCNQ2 inh baseline
O=C(NS(=O)(=O)c1ccccc1)c1ccccc1F	i	-1.8
Cc1ccc(C(=O)c2ccccc2C(=O)OCC(=O)Nc2ccc(SC(F)F)cc2)cc1	i	0.14
COc1ccc(-n2cc(-c3ccccc3)[nH]c2=S)cc1	i	2.4
CCOC(=O)c1ccccc1NC(=O)C1CSC2(C)CCC(=O)N12 (configuration not stated)	i	-0.7
COc1ccc(Cn2c(-c3ccco3)nc3oc4ccccc4c(=O)c3c2=O)cc1	i	1.7
CCOC(=O)n1c(=O)n(Cc2cccc(C)c2)c2ccccc21	i	-0.06
COC(=O)CCCNC(=O)c1ccc(S(=O)(=O)NCc2ccco2)cc1	i	1.6
Cn1c(CNC2CCCCC2)c(C#N)c2ccccc21	i	-0.42
CCCCC(=O)Nc1ccc(C(=O)Nc2nc(CC(=O)OCC)cs2)cc1	i	0.52
CN=c1scc(-c2ccc([N+](=O)[O-])cc2)n1/N=C/c1ccco1	i	-0.12
C=CCOC(=O)C1=C(C)Nc2nc3ccccc3n2C1c1ccncc1 (configuration not stated)	i	1.9
COc1ccc(OCC(=O)N/N=C(\C)CC(=O)Nc2ccc(NC(C)=O)cc2)cc1	i	-0.63
CCOC(=O)N1CCN(S(=O)(=O)c2ccc(F)c(C(=O)Nc3ccc(C(C)C)cc3)c2)CC1	i	-0.02
CCn1c(=O)cc(O)c2c(=O)n(C)c(=O)n(C)c21	i	2.5
CN(C)S(=O)(=O)c1cccc(C(=O)Nc2cc(Cl)ccc2O)c1	i	0.47
Cc1ccc(NC(=O)c2cc(-n3cnnc3)ccc2Cl)c(C)c1	i	1.7
CN(Cc1ccccc1)C(=O)COC(=O)c1cc(S(=O)(=O)N(C)C)ccc1N1CCCC1	i	3.3
N#Cc1ccc(NC(=O)c2nc(-c3ccccc3)n(-c3ccccc3)n2)cc1	i	1.6
COc1ccc(/C=C2/C(=O)N(c3ccccc3)N=C2C)c(OC)c1	i	-0.09
CCc1nnc(NC(=O)NC(C)(C)C)s1	i	-0.64
CCOC(=O)N1CCN(S(=O)(=O)c2ccc(C(=O)N(CCN(CC)CC)c3nc4c(C)cccc4s3)cc2)CC1	i	0.03
O=C1NC2(O)C(=O)c3ccccc3C2(O)N1 (configuration not stated)	i	-0.83
CN1CCN(c2oc(-c3ccc([N+](=O)[O-])cc3)nc2C#N)CC1	i	-0.25
S=C(Cc1ccccc1)NCCc1ccccc1	i	0.03
Cc1cccc(N2CCN(C(=O)c3ccc(CS(=O)Cc4ccc(Cl)cc4)o3)CC2)c1C (configuration not stated)	i	0.68
CC(=O)C12CC(C)=C(C)CC1CC1C3CCC4=CC(=O)CCC4(C)C3CCC12C (configuration not stated)	i	2.8
CC1=C(C(=O)Nc2ccccc2C)C(c2ccc(C)o2)C2=C(CCCC2=O)N1 (configuration not stated)	i	0.15
COc1ccc(NC(=O)CSc2nc3c(cc2C#N)CN(C)CC3)cc1	i	-1.2
CCOC(=O)c1c(C)c(C(=O)NCc2ccccc2OC)c(C)n1C	i	-0.53
Cc1ccc(NC(=O)CCN2CCN(CCO)CC2)cc1Br	i	0.8
Cc1ccc(CCN=c2c([N+](=O)[O-])nn(-c3ccccc3)n2O)cc1	i	0.72
CCN(c1ccccc1)S(=O)(=O)c1ccc(C(=O)NCCc2ccc(S(N)(=O)=O)cc2)cc1	i	0.17
CN=C(Nc1cccnc1)c1ccccc1	i	0.68
CCCC(=O)Nc1nnc(SCC(=O)NC2CC2)s1	i	1.4
CC(=O)Nc1ccc(CN2CCCN(C)CC2)cc1	i	-1
CSc1nc(C)cc(OCC(=O)N/N=C/c2ccccc2O)n1	i	1.7
CCCN(CCC)c1nc(C#N)nc(N(CCC)CCC)n1	-7.9*	0.54*
Cn1c(CCn2ccccc2=O)nc2cc(NC(=O)COc3ccccc3)ccc21	i	-2.1
CC(Oc1ccc(F)cc1)C(=O)Nc1cc(C(F)(F)F)ccc1-n1cncn1 (configuration not stated)	i	3.4
C=CCN1C(=O)C(Cc2cccc(C)c2)SC1=Nc1ccc(C(=O)O)cc1 (configuration not stated)	i	1
O=C(CSCC(=O)N1CCCCC1)Nc1nc(-c2cccs2)cs1	i	-0.68
CC(C)c1ccc(NC(=S)N2CCCC(c3ccc(F)cc3)=N2)cc1	i	-1
Cc1cccc(NC(=O)c2ccc(C(=O)c3ccccc3)cc2)n1	i	-1.1
COc1ccc(Cl)cc1N(CC(=O)Nc1ccccc1SC)S(C)(=O)=O	i	2.1
CN(C)S(=O)(=O)c1cccc(NC(=O)c2ccccc2OCc2ccc(F)cc2)c1	i	1.3
Cc1cc2ncn(CCCCOc3ccccc3)c2cc1C	i	-2.5
CCn1c(C)nc2cc(C(=O)NNC(=S)NC(=O)c3ccccc3)ccc21	i	-0.92
COc1cccc(C(=O)Nc2c3c(nn2-c2cccc(C)c2C)CS(=O)C3)c1OC (configuration not stated)	i	-0.27
CSc1nc2nccc(-c3ccc(-c4ccccc4)cc3)n2n1	i	0.7
O=C(CCc1n[nH]c(=O)[nH]c1=O)N1CCOCC1	i	-0.01
CCOCCCN(C(=O)c1snc(C(N)=O)c1N)C(C(=O)NC(C)(C)C)c1ccc(Cl)cc1 (configuration not stated)	i	1.1
CCCCCCCCCCCCC/C=C/[C@@H](O)[C@@H](N)CO	i	-1.4
CN(CC(=O)Nc1cccc(Cl)c1)S(=O)(=O)c1ccc2c(c1)n(C)c(=O)c(=O)n2C	i	2.9
CCN(CC)S(=O)(=O)c1ccc2oc(Nc3ccc4c(c3)OCCO4)nc2c1	i	-1.2
CCOc1ccc(N(CC(=O)NCc2ccc(OC)cc2)S(=O)(=O)c2c(C)noc2C)cc1	i	-0.58
CCCCNC(=S)N(Cc1ccco1)Cc1cc2cc3c(cc2[nH]c1=O)OCCO3	i	-0.55
COc1ccc(Cl)c2sc(NC(=O)C3=COCCO3)nc12	i	1.5
CCCCCCOC1(c2ccccc2)OC(=O)c2ccccc21 (configuration not stated)	i	-1.2
Cc1cccc(Cn2c(NCCO)nc3c2c(=O)n(C)c(=O)n3C)c1	i	1.8
COCCN(C(=S)Nc1ccc(Cl)cc1OC)C1CCN(C(C)=O)CC1	i	0.96

The list goes on:
compound	KCNQ2 inh	KCNQ2 inh baseline
O=C(COC(=O)c1cnc(Cl)c(Cl)c1)NCCC1=CCCCC1	i	1.2
C=C1CCC2C(C)(C)[C@@H](O)CC[C@@]2(C)[C@@H]1COc1ccc2ccc(=O)oc2c1 (some centres not stated)	i	1.2
COc1ccc(C2c3ccc4ccccc4c3Oc3ncn(CCN4CCOCC4)c(=N)c32)cc1 (configuration not stated)	i	-0.01
COc1ccc(C(C)=O)cc1CSc1nc2ccccc2c(=O)n1-c1ccccc1	i	0.46
COc1ccc(CNC(=O)COC(=O)CCn2c(C)csc2=O)cc1OC	i	1.1
Cc1cccc(Nc2ccncc2S(=O)(=O)NC(=O)NC(C)C)c1	i	0.63
COc1cc([N+](=O)[O-])ccc1NC(=O)COC(=O)CCS(=O)(=O)c1ccc(C)cc1	i	0.46
Nc1nonc1N/N=C/c1c(O)ccc2ccccc12	i	0.07
CCN(CC)c1nc(SCCOC(=O)Nc2ccccc2)nc(N(CC)CC)n1	i	0.01
COCCn1c(SCC(=O)NC(=O)NCc2ccccc2)nc2ccccc21	i	-0.19
Cc1ccn2cc(C(=O)Nc3ccccc3N3CCOCC3)nc2c1	i	-1.3
COc1cccc(-c2nn3c(-c4ccccn4)nnc3s2)c1	i	0.05
N#CC(C#N)=C1NC(N)=C(C#N)C(c2ccccc2)=C1C#N	i	-0.15
O=C(NCCCN1CCCC1)c1ccc(CS(=O)(=O)c2c(Cl)cccc2Cl)o1	i	2.3
Cc1cc(-c2ccccc2)c2c3c(cn2n1)c(=O)n(C)c(=O)n3C	i	0.11
CCOC(=O)c1sc(NC(=O)CSC(=S)N2CCOCC2)nc1C	i	0.08
Cc1cc(OC(=O)c2ccc(OC(C)C)cc2)c([N+](=O)[O-])c(=O)[nH]1	i	1.6
COc1ccc(NC(=O)CCC(=O)N/N=C/c2ccc([N+](=O)[O-])s2)cc1	i	0.53
COc1cc(C2C(C#N)=C(C)NC3=C2C(=O)CC(C)(C)C3)ccc1O (configuration not stated)	i	-2.1
Cc1ccc(S(=O)(=O)N2CCCCC2)cc1NC(=O)c1ccc2c(=O)n3c(nc2c1)CCCCC3	i	1.1
CCCS(=O)(=O)N1CCN(C2Cc3ccccc3C2)CC1	i	2.3
Cc1ccccc1OCC(O)CN (configuration not stated)	i	1.3
CCN1CC(CNCc2cn(-c3ccc(OC)cc3)nc2-c2ccccc2Cl)CC1=O (configuration not stated)	i	0.04
CN(C)c1nc(SCc2ccc(Cl)cc2)nc2c1CCCC2	i	-1.6
COc1ccc2nc(NC(=O)CSCC(=O)Nc3cc(C)on3)sc2c1	i	-1.9
O=S(=O)(N=S(N1CCCCC1)N1CCCCC1)c1ccccc1	i	-0.46
CC(=O)NC(C)c1nc2ccccc2n1CC(=O)NC(C)CCc1ccccc1 (configuration not stated)	i	-0.35
Cc1ccc(OCc2nnc(SCC(=O)Nc3sc(C)c(C)c3C#N)n2C)cc1	i	0.55
CNS(=O)(=O)c1cccc(C(=O)OC2CCOC2=O)c1 (configuration not stated)	i	-0.19
CN(C)CCC(O)c1ccccc1 (configuration not stated)	i	0.87
Cc1nc2ccccc2c(-c2ccccc2)c1C(=O)c1ccccc1	-9.2*	-3.3*
O=C(Nc1ccc(Cl)cc1)C1CC=CCC1C(=O)OCC(F)(F)C(F)F (configuration not stated)	i	0.69
O=C(NCc1ccc2c(c1)OCO2)C12CN(Cc3ccccc3)CC1C(c1cccc([N+](=O)[O-])c1)=NO2 (configuration not stated)	i	-0.22
N=c1c2c(n(Cc3ccc(Br)cc3)c3c1CCC3)CCCC2	i	-0.52
O=S(=O)(Nc1ccc(Cl)cc1)c1ccc(N2CCOCC2)c(NC(=S)NCCN2CCOCC2)c1	i	-1
Cc1ccc(C)c(C(=O)c2ccccc2NC(=O)c2ccccn2)c1	i	-0.04
CCc1nnc(NC(=O)c2cc(C)nc3ccccc23)s1	-6.3*	0.66*
COc1ccc(S(=O)(=O)N2CCN(c3ccccn3)CC2)cc1[N+](=O)[O-]	i	-1.2
CN(C)S(=O)(=O)c1cccc(NC(=S)N/N=C/C2CC=CCC2)c1 (configuration not stated)	i	0.81
O=C(CN1C(=O)c2ccccc2S1(=O)=O)c1ccccc1	i	-0.19
Cn1c(SCC(=O)N2CCCc3ccccc32)nc2ccccc2c1=O	i	0.23
COc1ccc(CN(Cc2ccc(C(=O)O)cc2)C(=S)Nc2ccccc2C)cc1OC	i	-0.08
COc1cccc(/C=C/C(=O)OCCN2C(=O)c3ccccc3C2=O)c1	i	-0.83
C#CCSc1nnnn1-c1ccc(Br)c(C)c1	i	0.52
CC(C)CN(C(=O)COC(=O)CCc1c[nH]c2ccccc12)c1c(N)n(Cc2ccccc2)c(=O)[nH]c1=O	i	-0.71
COCCn1c(SCC(=O)Nc2ccc(NC(C)=O)cc2)nc2c([nH]c3ccccc32)c1=O	i	-0.69
Cc1ccc2nc(-c3ccccn3)cc(C(=O)Nc3ccc4c(c3)OCO4)c2c1	i	1.4
Cc1cc(NC(=O)CN2C(=O)/C(=C/c3ccccc3F)SC2=S)no1	i	0.62

The closing 4 records of the section above lead into the next.
compound	KCNQ2 inh	KCNQ2 inh baseline
CC(C)CN(C(=O)COC(=O)CCc1c[nH]c2ccccc12)c1c(N)n(Cc2ccccc2)c(=O)[nH]c1=O	i	-0.71
COCCn1c(SCC(=O)Nc2ccc(NC(C)=O)cc2)nc2c([nH]c3ccccc32)c1=O	i	-0.69
Cc1ccc2nc(-c3ccccn3)cc(C(=O)Nc3ccc4c(c3)OCO4)c2c1	i	1.4
Cc1cc(NC(=O)CN2C(=O)/C(=C/c3ccccc3F)SC2=S)no1	i	0.62
CCCC(=O)N(c1ccc(F)cc1)C1C=CS(=O)(=O)C1 (configuration not stated)	i	0.06
CCOc1ccc(Oc2ccc(S(=O)(=O)N3CCOCC3)cc2N)cc1	i	1.1
CC12CN3CCN(CC(C3)/C1=N\NC(=O)Nc1cccc(Cl)c1)C2	i	0.66
Cc1cccc(NC(=S)NNC(=O)Cc2ccccc2)c1	i	-1.1
Cc1ccccc1NC(=S)/C(=C(\[O-])c1cc(C)n(Cc2ccccc2Cl)c1C)[n+]1ccccc1	i	-0.61
CC1CCCN(C2=C(Cl)C(=O)N(c3cccc(Cl)c3)C2=O)C1 (configuration not stated)	i	1.9
CCOC(=O)c1cccc(NC(=O)CSc2nc(N)cc(N)n2)c1	i	1.8
CCn1cc(/C=C(\NC(=O)c2ccccc2Cl)C(=O)NCCN2CCOCC2)c2ccccc21	i	0.58
CCCCn1c(N)c(N(CC(C)C)C(=O)C2CCN(S(=O)(=O)c3ccc(F)cc3)CC2)c(=O)[nH]c1=O	i	-0.08
COc1ccc(N(CC(=O)NCc2ccncc2)S(=O)(=O)c2ccc(C)c([N+](=O)[O-])c2)cc1	i	1.8

Not all compounds are listed, so the mix of outcomes need not match the whole.
